NS1 function inh: influenza NS1 inhibition | S. cerevisiae slowed by influenza A NS1, growth recovery by OD600 | Potency, µM (top dose mostly 46.1 µM), for the others: at the top dose activity, positive = more growth | hit rate 0.4% among 270,000 | AID 2326; further: actives are rising curves; nearly all actives have a fitted effect of over 50% in size
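In this qHTS, NS1 from influenza A is expressed in budding yeast, where it slows growth. Cells are switched from glucose to 2% galactose medium (pH 6.0, -URA), treated with compound, and growth recovery is read at OD600.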
SARS PLP yeast: blocks SARS-CoV papain-like protease in a yeast assay; S. cerevisiae expressing SARS-CoV PLpro, growth rescue; control for the full effect not named in the record; Potency, µM (doses to about 32.9 µM), for the others: top-dose activity, positive = growth rescue; hit rate 0.19% among 330,000; AID 485353; further: 0% is about no effect; nearly all actives have a fitted effect of over 55% in size; growth read by luminescence after 48 h
Starred values were filed as active, the others as inactive; ? = inconclusive; [ ] = remark or other dose. The call rests on the fitted dose curve; in most records, active means well fitted rising curve with a large enough effect; inconclusive means small, poorly fitted or top-dose-only effect; inactive means no such curve, though single readings can be large or run the other way. Potency means the concentration at half of the fitted maximal effect. The list is partial, so the mix of outcomes need not match the whole.

Order of values: NS1 function inh | SARS PLP yeast
CCOc1cc(/C=C2\SC(=Nc3ccc(F)cc3)N(c3ccc(F)cc3)C2=O)ccc1OCC(=O)O
→ ? | 0%
CCCC[C@]12Cc3c(ccc4ccccc34)C(O1)C1=C(O2)C(=O)c2ccccc2C1=O
→ ? | -5%[6.58 µM]
COc1ccc(C2=CC(=O)C=CC2=O)cc1
→ -140% | -5%
C=CCC1(CC=C)CCCN1C(=O)c1cc(COc2cncc(Cl)c2)on1
→ -43% | -1%
O=C(OCc1cc(Cl)ccc1OC(F)F)c1ccc([N+](=O)[O-])o1
→ -113% | -24%
O=C(/C(N=Nc1cccc([N+](=O)[O-])c1)=C(/O)c1ccc(Br)cc1)C(F)(F)F
→ -109% | -4%
COc1ccc([C@]23Cc4ccccc4C(O2)C2=C(O3)C(=O)c3ccccc3C2=O)cc1
→ 23% | 2%[6.58 µM]
C/C=C/C(O)c1ccc2ccccc2c1 (stereo not drawn)
→ 26% | -5%
CCOC(=O)c1ccc(NS(=O)(=O)c2ccc(Cl)nc2)cc1
→ 4% | -7%
Cc1ccc(C(=O)NNC(=O)CSc2nnc(CNc3ccc(F)cc3)n2C)cc1
→ 0% | 0%

Among those listed so far, these contain fluorine:
Order of values: NS1 function inh | SARS PLP yeast
CCOc1cc(/C=C2\SC(=Nc3ccc(F)cc3)N(c3ccc(F)cc3)C2=O)ccc1OCC(=O)O
→ ? | 0%
O=C(OCc1cc(Cl)ccc1OC(F)F)c1ccc([N+](=O)[O-])o1
→ -113% | -24%
O=C(/C(N=Nc1cccc([N+](=O)[O-])c1)=C(/O)c1ccc(Br)cc1)C(F)(F)F
→ -109% | -4%
Cc1ccc(C(=O)NNC(=O)CSc2nnc(CNc3ccc(F)cc3)n2C)cc1
→ 0% | 0%

(list continues)
Order of values: NS1 function inh | SARS PLP yeast
Cc1cccc(NC(=O)c2ccccc2OCC(=O)N2CCCC2)c1C
→ -4% | 0%
O=C(Cc1ccccc1)N[C@@H](Cc1ccc(O)cc1)C(=O)O
→ 1% | 0%
CCOc1nc(C)cc(C)c1S(=O)(=O)c1cccc(C)c1
→ 0% | 0%
Cc1sc2nc(CSc3ccc([N+](=O)[O-])cc3)[nH]c(=O)c2c1C
→ 11% | 1%
CCCCCCN(C(=O)CCCCCN1C(=O)NC(c2ccccc2)C(C(=O)OCc2ccccc2)=C1C)C(C(=O)NCCCC)c1ccc(OCC(=O)OC)c(C(=O)OC)c1 (stereo not drawn)
→ 16% | 1%
CSc1nc(NCCCN(C)C)c2c3c(sc2n1)CN(C)CC3
→ -2% | -2%
O=C(CCCc1ccccc1)NCc1ccccc1
→ -4% | -2%
COC(=O)N1C(=O)[C@@](CC(C)C)(c2ccccc2)N1C(=O)OC
→ 0% | 4%
NC(=O)CC(NC(=O)c1cccc(Br)c1)c1ccc(NCCN2CCOCC2)c([N+](=O)[O-])c1 (stereo not drawn)
→ -3% | 1%
O=C(/C=C/c1ccccc1[N+](=O)[O-])Oc1ccccc1
→ -5% | 6%

The listing continues:
Order of values: NS1 function inh | SARS PLP yeast
CC(C)CCN(C(=O)COc1ccc(C#N)cc1)c1c(N)n(Cc2ccccc2)c(=O)[nH]c1=O
→ -1% | 0%
C#CCOCCOCCOCCNc1nc(N2CCN(C(=O)[C@H]([C@@H](C)CC)n3cc([C@@H](N)CC(C)C)nn3)CC2)nc(N2CCN(C(=O)[C@H](Cc3cc4ccccc4[nH]3)n3cc([C@@H](N)CC(C)C)nn3)CC2)n1
→ -41% | 1%
COc1ccccc1C(=O)NN1C(=O)/C(=C/c2cccn2C)SC1=S
→ 9% | 1%
CCCC[C@]12Cc3ccccc3C(O1)c1c(c3ccccc3oc1=O)O2
→ 4% | 1%[6.58 µM]
CCS(=O)(=O)C1=NN2C(=N)/C(=C\c3ccc(OS(=O)(=O)c4ccccc4)c(OC)c3)C(=O)N=C2S1
→ 22% | 2%
COc1ccc(Nc2nc3ccc(C)cc3n3cnnc23)cc1Cl
→ -2% | -3%
COCC(=O)Nc1cc(Cl)ccc1C(F)(F)F
→ 3% | 1%
CSc1ccc(C2c3[nH]c4ccccc4c3CCN2C(=O)c2cc(C)n(C)n2)cc1 (stereo not drawn)
→ 12% | -1%
O=C(Nc1ccc(S(=O)(=O)N2CCCCCC2)cc1)c1[nH]ncc1[N+](=O)[O-]
→ 6% | -4%
Fc1ccc(N2CCN(Cc3c[nH]c4ccccc34)CC2)cc1
→ 7% | 0%

Next section
Order of values: NS1 function inh | SARS PLP yeast
COC(=O)C1=C(C)N(Cc2ccccc2)C(=NCC2CC2)N[C@H]1c1ccc(Br)cc1
→ 6% | 7%
CC(C)C(=O)N1CCC2(CC1)Oc1ccc(F)cc1C(=O)C21CC(c2cccnc2)=NO1 (stereo not drawn)
→ 4% | 2%
O=[N+]([O-])c1cccc(N=Cc2sc3ccccc3c2O)c1
→ -4% | 1%
C=CCn1c2ccccc2c(=O)c2cc(C#Cc3ccsc3)ccc21
→ -13% | -12%
CC(C)c1ccc(/C=C(\NC(=O)c2ccccc2)C(=O)NCCN2CCOCC2)cc1
→ 6% | 1%
O=C(O)c1ccccc1NC(=O)C1C2CCC(O2)C1C(=O)O (stereo not drawn)
→ 3% | 2%
O=C(NC(=S)Nc1ccccc1N1CCCC1)c1ccccc1Br
→ 5% | 13%
Cc1ccc(OCCCC(=O)NCc2ccco2)c(C)c1
→ -6% | -1%
CCOC(=O)c1c(NC(=O)c2ccc(C)cc2)sc2c1CC(C)(C)NC2(C)C
→ 2% | 1%
CCCCCCCCCCC(=O)Nc1cccnc1
→ -9% | -1%

Ordered by count of non-hydrogen atoms (largest number first): part of the list above
Order of values: NS1 function inh | SARS PLP yeast
CC(C)C(=O)N1CCC2(CC1)Oc1ccc(F)cc1C(=O)C21CC(c2cccnc2)=NO1 (stereo not drawn)
→ 4% | 2%
CC(C)c1ccc(/C=C(\NC(=O)c2ccccc2)C(=O)NCCN2CCOCC2)cc1
→ 6% | 1%
CCOC(=O)c1c(NC(=O)c2ccc(C)cc2)sc2c1CC(C)(C)NC2(C)C
→ 2% | 1%
O=C(NC(=S)Nc1ccccc1N1CCCC1)c1ccccc1Br
→ 5% | 13%
O=C(O)c1ccccc1NC(=O)C1C2CCC(O2)C1C(=O)O (stereo not drawn)
→ 3% | 2%
Cc1ccc(OCCCC(=O)NCc2ccco2)c(C)c1
→ -6% | -1%

Following part:
Order of values: NS1 function inh | SARS PLP yeast
COc1ccc(CCN(Cc2cc3cccc(C)c3n3nnnc23)C(=O)c2ccncc2)cc1OC
→ 6% | 1%
Cc1cc(C(C)C)n2c(nc3ccccc32)c1C#N
→ 1% | -1%
CCN(CC)CCCNc1nc(SC)nc2sc3c(c12)CCN(C)C3
→ 1% | -3%
CSc1ccccc1OCc1cc(C(=O)N2CCC(c3ccncc3)CC2)no1
→ -30% | -9%
Cc1ccc(NC(=O)C2CCCCC2)c(O)c1
→ 4% | -1%
CC1CCCN(S(=O)(=O)c2ccc(C(=O)Nc3nnc(C4=COCCO4)o3)cc2)C1 (stereo not drawn)
→ -19% | 2%
COc1ccc(/C=C2/C(=O)NC(=O)N(Cc3ccco3)C2=O)cc1
→ 15% | 0%
C#CCOCCOCCOCCNc1nc(N2CCN(C(=O)[C@H](CCC(=O)O)n3cc(C(N)CC(C)C)nn3)CC2)nc(N2CCN(C(=O)[C@H](Cc3ccc(O)cc3)n3cc(C(N)[C@H](C)CC)nn3)CC2)n1 (stereo partly drawn)
→ 1% | -1%
CCn1cc(C(=O)Nc2ccccc2)c(=O)c2ccc(C)nc21
→ -3% | 0%
Oc1[nH]c2ccccc2c1N=Nc1ncnc2c1oc1ccccc12
→ -1% | 0%

Further structures:
SMILES	NS1 function inh	SARS PLP yeast
Cc1ccnc(NC(=O)c2ccc(Cl)cc2Cl)n1	-1%	0%
Cc1ccc[n+](CC(=O)c2ccccc2)c1	18%	2%
COc1ccccc1NC(=O)c1ccc(CSc2ncccn2)cc1	-5%	-2%
N#Cc1ccc2c(c1)C[C@]1(c3ccsc3)Oc3c(c(=O)oc4ccc(F)cc34)C2O1	15%	-18%[6.58 µM]
S=C(Sc1ccc(Cl)cc1)Sc1ccc(Cl)cc1	9%	-15%
CC(O)CCC(=O)NNC1=CC(=O)CC(C)(C)C1 (stereo not drawn)	3%	1%
Cc1ccc(-c2ccc(/C=N/NC(=O)c3ccccc3O)o2)cc1	-1%	-2%
O=C(c1ccc(-c2ccccc2)cc1)c1ccc([N+](=O)[O-])cc1	0%	-1%
COc1ccc(C[C@H]2CN3C(=NC[C@@H]3Cc3ccccc3)N2C[C@H](C)NC(=O)CCC2CCCCC2)cc1	7%	0%
COc1cc2[nH]c(C(=O)NN)c(N)c2cc1OC	4%	0%
CCCCCCN(C(=O)CCCCCN1C(=O)NC(c2ccc(-c3ccccc3)cc2)C(C(=O)OCc2ccccc2)=C1C)C(C(=O)NCCCC)C1CCCCC1 (stereo not drawn)	-5%	0%
Cc1ccc(-n2cc(CN3CCC(CO)(Cc4ccccc4)CC3)cn2)cc1	-3%	0%
CCCCn1c(C)cc2c(c1=O)[C@H]1O[C@](CCCC)(Cc3cc(OC)c(OC)cc31)O2	4%	-9%[6.58 µM]
Cc1c(-c2ccncc2)oc2ccc(Br)cc2c1=O	1%	-1%
O=C(Cc1ccccc1[N+](=O)[O-])Nc1ccc(S(=O)(=O)N2CCCC2)cc1	14%	-2%

The list goes on.
SMILES	NS1 function inh	SARS PLP yeast
Cc1ccccc1OCCNc1cc(N2CCNCC2)ccc1[N+](=O)[O-]	1%	0%
Cc1ccc(C2(c3noc(CN(C)CCCN4CCOCC4)n3)CCCC2)cc1	-5%	1%
O=[N+]([O-])c1ccc(C23CC4CC(CC(O)(C4)C2)C3)cc1	-9%	?
COC(=O)c1ccc(NC(=O)c2cnc3scc(C)n3c2=O)cc1	-18%	1%
COc1ccc(CCC(=O)Nc2nc(-c3ccncc3)cs2)cc1	4%	-13%
O=C(c1ccc2c(c1)OCCO2)N1CCN(c2ccc([N+](=O)[O-])cc2)CC1	-5%	-1%
COC(=O)c1cc(-c2ccccc2)c2c(=O)n(C)c(=O)n(C)c2n1	2%	1%
N#C/C(=C\c1ccc(-c2cccc([N+](=O)[O-])c2)o1)c1nnc(N2CCOCC2)n1-c1ccccc1	4%	0%
O=c1[nH]c(CSc2nc3ccccc3s2)nc2cc(Cl)ccc12	10%	-1%
Cc1cccc(CN2C(=O)/C(=C\c3ccc(C(=O)NCCCN4CCN(C)CC4)cc3)Oc3ccccc32)c1	-1%	3%
Cc1ccc(/C=C2/C(=O)NC(=O)N(Cc3ccc(F)cc3)C2=O)o1	3%	-5%
CCn1cc(C(=O)Nc2cc(C)ccc2C)c(=O)c2ccc(C)nc21	-2%	0%
Cc1nnc(N/N=C/c2c(O)n(-c3cccc(C(F)(F)F)c3)c(=O)c3ccccc23)[nH]c1=O	7%	-1%
CCOC(=O)C(CC)(CCC(=O)OC)c1csc(Nc2ccccc2O)n1 (stereo not drawn)	3%	0%
C/C=C/C=C/C(=O)Nc1cccc(C2=NOC3(C2)C[C@H](C(N)=O)N(C(=O)CC(c2ccccc2)c2ccccc2)C3)c1 (stereo partly drawn)	14%	0%

Continuation.
SMILES	NS1 function inh	SARS PLP yeast
CCOC(=O)C1CCN(Cc2ccccn2)CC1	-1%	-4%
O=C(CSc1ccccn1)Nc1ccc2ccccc2c1	-2%	-4%
CCCCCC(=O)Nc1cccc(C2=NOC3(C2)C[C@H](C(N)=O)N(C(=O)CC#N)C3)c1 (stereo partly drawn)	3%	-5%
COc1cc(/C=N/Nc2nc(N3CCCCC3)nc(N3CCCCC3)n2)ccc1OC(=O)c1ccco1	6%	-3%
CC(=O)c1ccc(-c2ccccc2[C@H]2[C@H]3C=CC[C@@H](C)[C@@H]3C(=O)N2Cc2ccccc2)cc1	-84%	-13%
CCOC(=O)C1(Cc2cccc(Cl)c2)CCCN(C(=O)CCN2CCCC2=O)C1 (stereo not drawn)	0%	?
O=C(Nc1ccc(F)c(Cl)c1)Nn1cnnc1	5%	1%
O=C1COc2ccc(N3C(=O)c4ccccc4C3=O)cc2N1	2%	1%
C#CCOCCOCCOCCNc1nc(N2CCN(C(=O)[C@H](Cc3ccc(O)cc3)n3cc([C@@H](N)CC(C)C)nn3)CC2)nc(N2CCN(C(=O)[C@H](Cc3ccc(O)cc3)n3cc([C@@H](N)CC(C)C)nn3)CC2)n1	9%	-1%
CC1CCCN(C(=O)Cn2nnc(-c3ccc([N+](=O)[O-])cc3)n2)C1 (stereo not drawn)	2%	2%
CC(=O)Nc1ccc(Cc2nc3c([nH]2)c(=O)n(C)c(=O)n3C)cc1	5%	-1%
CCC(=O)O[C@@H]1CC(=O)O[C@H](C)CC=CC=C[C@@H](O)[C@H](C)C[C@H](CC=O)[C@H](O[C@H]2O[C@H](C)[C@@H](O[C@H]3C[C@@](C)(O)[C@@H](OC(=O)CC)[C@H](C)O3)[C@H](N(C)C)[C@H]2O)[C@H]1OC	-33%	-1%
CN(C)CCCN(C(=O)c1ccc(S(=O)(=O)N2CCCc3ccccc32)cc1)c1nc2ccc(F)cc2s1	-5%	-4%
COC(=O)C(=C/C=C/N1CCOCC1)C(=O)OC	5%	1%
O=C(Nc1ccccn1)c1ccc2nc(-c3ccccc3)c(-c3ccccc3)nc2c1	4%	0%

Following part.
SMILES	NS1 function inh	SARS PLP yeast
NC(=O)c1nsc(C(=O)N(CC(=O)NC2CCCC2)c2cnc3ccccc3c2)c1N	-33%	-1%
CC(C)Sc1nc(-c2cccs2)nc2c1c(=O)n(C)c(=O)n2C	-9%	0%
O=C1C2=C(C(=O)c3ccccc31)C1O[C@](c3ccsc3)(Cc3c1ccc1ccccc31)O2	3%	-3%[6.58 µM]
CC(=O)Nc1ccc(SC[C@H](c2ccccc2)N2CCN(CCc3ccccc3)CCC2=O)cc1	-2%	1%

Screens from PubChem.
